Bioassay records from PubChem BioAssay.
NS1 function inh: qHTS Assay for Inhibitors of Influenza NS1 Protein Function | AID 2326, 2010 | S. cerevisiae slowed by influenza A NS1, growth recovery by OD600 | 270,000 tested, 0.4% active | Potency, µM (titrated, usually from 46.1 µM), for the others: at the highest dose activity, positive = more growth; further: actives are rising curves; nearly all actives have a fitted effect of over 50% in size
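OD600 was taken as the measure of yeast growth restored by compound in an NS1-expressing S. cerevisiae strain. Cells had been washed out of glucose medium and diluted 1:100 into galactose -URA medium, pH 6.0.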
2A StopGo: High Throughput Screening for Foot and Mouth Disease Virus Antivirals; human cells with a luciferase reporter of 2A StopGo recoding; control for the full effect not named in the record; Potency, µM (series often up to 57.9 µM), for the others: top-dose signal change, negative = less light; 410,000 tested, 1.2% active; AID 1159524, 2015; active = well fitted falling curve with a large enough effect; inconclusive = small, poorly fitted or top-dose-only effect; inactive = no such curve, though single readings can be large or run the other way; tested in HEK293T cells; further: on the % scale 0 is the no-effect control and ±100 the full control effect; nearly all actives have a fitted effect of over 45% in size; luciferase light after 4 h
Cruzain Triton: qHTS Assay for Promiscuous and Specific Inhibitors of Cruzain (with detergent); Cruzipain (Trypanosoma cruzi), P25779; purified cruzain, Z-FR-AMC fluorescence, 0.01% Triton; Potency, µM, without a hit: max response, negative = inhibition, most hits filed as inhibitors; 200,000 tested, 0.43% active; AID 1478, 2009; active means well fitted curve in the direction sought with a large enough effect; inconclusive means small, poorly fitted or top-dose-only effect, or another doubt; inactive means no such curve, though single readings can be large; an effect the other way counts as inactive or inconclusive;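 further: plate controls were neutral wells for no effect and buffer without enzyme for full effect; nearly all actives have a fitted effect of over 40% in size; top concentration of the series not given in the record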
Target sequence (P25779 123-467 limits assumed): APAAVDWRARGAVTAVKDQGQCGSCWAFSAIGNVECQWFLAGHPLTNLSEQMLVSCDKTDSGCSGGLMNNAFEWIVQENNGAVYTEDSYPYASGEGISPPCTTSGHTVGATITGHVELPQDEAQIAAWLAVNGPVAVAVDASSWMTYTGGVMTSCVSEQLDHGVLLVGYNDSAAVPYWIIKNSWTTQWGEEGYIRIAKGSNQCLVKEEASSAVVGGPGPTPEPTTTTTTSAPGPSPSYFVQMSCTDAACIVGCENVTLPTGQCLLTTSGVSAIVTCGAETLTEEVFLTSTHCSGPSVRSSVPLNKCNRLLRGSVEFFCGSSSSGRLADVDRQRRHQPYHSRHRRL
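Enzyme 1.5 nM, Z-FR-AMC 2 uM, NaOAc 100 mM pH 5.5, DTT 5 mM, Triton X-100 0.01%; 15 min RT compound preincubation; kinetic ex360/em450, 60 s delta.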
LASV entry inh: qHTS for Inhibitors of binding or entry into cells for Lassa Virus; Potency, µM (highest dose often 37.9 µM), without a hit: at the top dose activity change, negative = inhibition, most hits filed as inhibitors; Lassa virus pseudotype entry inhibition, cell reporter; control for the full effect not named in the record; AID 540256, 2011; 300,000 tested, 1.2% active; active means well fitted inhibition curve with a large enough effect; inconclusive means small, poorly fitted or top-dose-only effect, or effect the other way; inactive means flat fitted curve, though single readings scatter; tested in HEK293 cells; further: on the % scale 0 is the no-effect control and ±100 the full control effect; nearly all actives have a fitted effect of over 50% in size; luciferase read-out
SARS PLP yeast: qHTS of Yeast-based Assay for SARS-CoV PLP; Potency, µM (top dose mostly 32.9 µM), for inactives: at the highest dose activity, positive = growth rescue; S. cerevisiae expressing SARS-CoV PLpro, growth rescue; control for the full effect not named in the record; 330,000 tested, 0.19% active; further: 0% is about no effect; nearly all actives have a fitted effect of over 55% in size; growth read by luminescence after 48 h
Marburg entry inh: qHTS for inhibitors of binding or entry into cells for Marburg Virus. Marburg virus pseudotyped entry inhibition, cell reporter; control for the full effect not named in the record; about a third of the inactives were read at about 46 µM. Potency, µM (series often up to 37.8 µM), inactives show at the highest dose activity change, negative = inhibition, usual class: inhibitors. 300,000 tested, 1.8% active. AID 540276, 2011; active = well fitted inhibition curve with a large enough effect; inconclusive = small, poorly fitted or top-dose-only effect, or effect the other way; inactive = flat fitted curve, though single readings scatter; tested in HEK293 cells; about a fifth of its hits are not listed in these tables; further: on the % scale 0 is the no-effect control and ±100 the full control effect; luciferase read-out
Cruzain noTriton: qHTS Assay for Promiscuous and Specific Inhibitors of Cruzain (without detergent). AID 1476, 2009. Cruzipain (Trypanosoma cruzi), P25779. Potency, µM, for the others: max response, negative = inhibition, hits mostly inhibitors. purified cruzain, Z-FR-AMC fluorescence, no detergent. 200,000 tested, 2.3% active; active means well fitted curve in the direction sought with a large enough effect; inconclusive means small, poorly fitted or top-dose-only effect, or another doubt; inactive means no such curve, though single readings can be large; an effect the other way counts as inactive or inconclusive;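 further: plate controls were enzyme without inhibitor for no effect and buffer without enzyme for full effect; nearly all actives have a fitted effect of over 40% in size; top concentration of the series not given in the record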
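Detergent-free condition (0.00005% Triton X-100) in acetate buffer pH 5.5 with DTT. 1.5 nM enzyme and compound were pre-mixed 15 min, then 2 uM Z-FR-AMC substrate added; reaction progress from fluorescence change between first and third reads (60 s).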
RE007 growth inh: qHTS Assay for Inhibitors of the HIV-1 protein Vpr; 360,000 tested, 0.21% active; Potency, µM (doses to about 92.2 µM), inactives show at the top dose activity change, negative = less growth; S. pombe RE007 Vpr strain, BacTiter-Glo ATP luminescence, 24 h; control for the full effect not named in the record; active = well fitted falling curve with a large enough effect; inconclusive = small, poorly fitted or top-dose-only effect; inactive = no such curve, though single readings can be large or run the other way;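 further: on the % scale 0 is the no-effect control and ±100 the full control effect; nearly all actives have a fitted effect of over 50% in size; the assay follows cell death caused by Vpr and the record does not say whether a fall means rescue or toxicity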
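Fission yeast RE007 carrying one integrated HIV-1 vpr copy, seeded at OD 0.01 in PMG+AL medium with 23 nL pinned compound. Grown 24 h at 30 degrees; viability read by BacTiter-Glo luminescence after 5 min.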
Numbers without * were called inactive; u = inconclusive; x = not tested or not shown; & = joins results of further samples; [ ] = remark or other dose. Unless noted, the call rests on the fitted dose curve; in most records, active means well fitted rising curve with a large enough effect; inconclusive means small, poorly fitted or top-dose-only effect; inactive means no such curve, though single readings can be large or run the other way. Potency means the concentration at half of the fitted maximal effect.

The line under a structure holds: NS1 function inh, 2A StopGo, Cruzain Triton, LASV entry inh, SARS PLP yeast, Marburg entry inh, Cruzain noTriton, RE007 growth inh
> Cc1c(CC(=O)O)c(=O)oc2cc(OCc3ccc(Cl)cc3)ccc12
  1.4%, 39.6%[activator], x, 19.2%, -1.1%, u, x, 0.0%
> CCOC(=O)c1nc2cc3n(c(C)c-2c1C)C(C)C(CC)=C3C (stereo not given)
  x, u, x, -15.5%, x, u, x, 9.7%
> COc1ccc(CNC(=O)C2CCCN2C)cc1OC (stereo not given)
  -1.5%, -10.7%, x, x, 1.0%, x, x, -3.2%
> CCOC(=O)CSc1nnc(NC(=O)c2cccc([N+](=O)[O-])c2C)s1
  5.9%, -8.3%, -0.8%, -7.4%, -6.2%, u, -20.7%, 7.1%
> O=C(COc1ccccc1Cl)Nc1ccc2c(c1)C(=O)NC2=O
  -6.7%, 2.9%, x, u, -0.5%, -5.4%[46.1 µM], x, -2.1%
> COc1ccc([N+](=O)[O-])cc1C1NN=C(c2ccccc2O)S1 (stereo not given)
  -33.4%, 17.0%, -0.5%, -7.7%, -19.8%, u, 20µM*, 8.4%
> C[C@]12CCC(=O)CC1=CCC1C3CC=C(C#N)[C@@]3(C)CC[C@@]12O (stereo not given in full)
  -4.9%, 0.6%, x, x, -2.0%, x, x, -3.8%
> Cc1ccc(S(=O)(=O)NCCN=C(CN2CCCC2)NS(=O)(=O)c2ccc(C)cc2)cc1
  -15.4%, 51.9%[activator], 3.3%, -2.3%, 0.2%, u, 10.4%, -0.4%
> COc1ccc(Nc2sc(C(=O)Nc3cccc(Cl)c3)c(N)c2C(=O)Nc2ccccc2OC)cc1
  18.9%, x, -5.1%, x, 11.4%, 2.8%, u, x
> O=C(Cc1c(O)c2ccccc2[nH]c1=O)NC1CCCCCCC1
  -14.4%, 12.6%, -0.1%, 14.2%, 19.8%, 17.8%, -4.7%, 9.1%
> CCCNC(=S)N1CCC(C(=O)c2ccc(F)cc2)CC1
  8.8%, -16.3%, x, u, 1.3%, -5.6%[46.1 µM], x, 6.8%
> O=C1c2cccnc2C(Nc2ccccc2)N1Cc1ccco1 (stereo not given)
  0.3%, 1.8%, -10.6%, 0.2%, -0.5%, -6.3%, -7.2%, -8.8%
> COc1ccc2oc(=O)c(-c3csc(Nc4cccc(O)c4)n3)cc2c1
  9.9%, u, -11.6%, u, -78.6%, u, 25.1µM*, -4.0%
> O=C(CC(c1ccccc1)c1ccccc1O)N1CCCC1 (stereo not given)
  -3.3%, -3.1%, 1.9%, 2.3%, -2.7%, 4.9%, 0.4%, 26.5%
> COc1ccc(NC(=O)c2cc(-c3cc(C)cc(C)c3O)n[nH]2)cc1Cl
  -40.4%, u, -9.8%, 0.0%, -11.8%, u, -2.0%, 9.6%[3.69 µM]
> CC(=O)c1cn(CC(=O)Nc2ccccc2C)c2ccccc12
  16.2%, u, 4.1%, -28.3%, 1.3%, u, -20.2%, 11.7%
> COCc1cc(C)nc(SCC(=O)Nc2ccc3c(c2)n(C)c(=O)n3C)c1C#N
  4.8%, -1.1%, x, 22.0%, -0.5%, 26.8%, x, -17.6%
> NCCCCNCCCN
  12.5%&2.2%, -7.4%&-15.5%&0.6%, 1.4%&-5.8%&0.0%, u, 0.3%, -17.7%&-17.7%&-8.1%&-17.7%&-17.7%&-17.7%&-17.7%&-17.7%&-17.7%, -5.0%&-4.2%&3.0%, 3.8%[18.4 µM]
> C[C@@H](NC(=O)C1(c2ccccc2)CCN(C(=O)OC(C)(C)C)CC1)C(=O)N[C@@H](C(=O)O)c1ccccc1
  15.4%, -7.2%, x, x, -0.3%, x, x, -7.1%
> Nc1nc(NCCCN2CCOCC2)nc(NCc2ccccc2)c1[N+](=O)[O-]
  0.5%, -15.5%, x, u, -0.1%, u, x, -19.4%
> Cc1cc(=O)oc2cc(OCc3ccc(C(=O)OCC(=O)N(C)C4CCS(=O)(=O)C4)cc3)ccc12 (stereo not given)
  4.6%, 15.6%, x, x, 0.4%, x, x, 4.3%
> COc1ccc(O)c(CN2CCCC(N3CCN(c4ccccc4OC)CC3)C2)c1 (stereo not given)
  20.7%, -11.0%, x, u, -1.0%, 13.8%[46.1 µM], x, -18.1%
> O=C(O)CSCC(=O)Nc1ccc(C2CCCCC2)cc1
  12.3%, 1.12µM*, -2.0%, u, x, u, -12.6%, 8.3%
> O=C(NS(=O)(=O)c1ccccc1[N+](=O)[O-])c1ccccc1
  7.2%, -3.7%, x, x, -3.6%, x, x, 14.0%
> Cc1sc2nc(C3CC3)nc(NCCNS(C)(=O)=O)c2c1C
  -8.2%, -7.0%, -0.2%, 8.2%, -4.7%, u, -2.5%, -2.0%
> COc1cc(C(C(=O)NC2CCCCC2)N(C(=O)c2cnccn2)c2ccccc2)cc(OC)c1OC (stereo not given)
  4.0%, -4.0%, x, x, -1.1%, 11.5%[46.1 µM], x, -14.2%
> N=c1c(C(=O)NC2CCCC2)cc2c(=O)n3ccccc3nc2n1Cc1ccccc1
  -2.4%, -0.8%, x, x, 14.9%, x, x, 4.7%
> Cc1ccc(C(=O)CCC(=O)OCC(=O)Nc2nnc(-c3ccccc3)o2)cc1
  x, 2.0%, x, 12.0%, -1.5%, 20.7%, x, 4.6%
> COC(=O)c1cccc(NC(=O)CN2CCN(Cc3ccccc3)CC2)c1
  -4.7%, -5.4%, 1.0%, -17.7%, 1.3%, -5.9%, 2.8%, -12.5%
> CC1(C)CC(CC(=O)O)C(=O)O1 (stereo not given)
  -4.0%, 14.8%, 4.4%, -9.9%, 7.4%, -5.5%, 9.7%, 6.0%
> O=C(CN(C1CCCCC1)S(=O)(=O)c1ccc(F)cc1)NC1CC1
  -8.1%, x, 4.5%, -1.6%, 3.8%, -18.9%, 6.0%, 9.5%
> COc1ccc(C(=O)c2cn[nH]c2-c2cc(C)ccc2O)cc1
  -3.3%, -10.3%, x, x, 1.5%, x, x, 0.0%
> NC(=O)CS(=O)(=O)c1nc2ccccc2n1Cc1ccccc1F
  5.8%, 5.4%, -1.7%, u, -2.9%, 0.5%&0.5%, -0.7%, 23.2%
> CCc1ccccc1Nc1nc2ccccc2n1C
  -0.6%, 7.5%, x, -19.7%[46.1 µM], -1.2%, u, x, -18.4%
> COC(=O)C1=CN(C(C)c2ccccc2)C=C(C(=O)OC)C1c1cc(OC)c(OC)c(OC)c1 (stereo not given)
  17.4%, -24.7%, x, u, 0.3%, u, x, 2.4%
> O=C1C(Cl)=C(N2CCOCC2)C(=O)N1c1ccc(Br)cc1
  1.0%, -5.3%, x, x, -1.1%, x, x, 25.8%
> CN(C)CCCN(Cc1ccccc1)C(=S)NCc1ccccc1
  x, 2.1%, x, 5.1%, -2.0%, u, x, -15.5%
> O=C(CSc1nnc(-c2ccccc2)o1)c1nnc(-c2ccccc2)o1
  7.7%, -9.6%, -19.4%, 12.8%, 3.9%, 0.0%, -27.6%, -18.6%
> OC(COc1c(F)cc(Br)cc1F)CN1CCc2ccccc2C1 (stereo not given)
  6.0%, -17.1%, x, x, 3.9%, x, x, -18.6%
> CC(=O)c1cccc(Nc2cc(C)nc3nc(-c4ccccc4C)nn23)c1
  x, 11.7%, -3.2%, -4.3%[46.1 µM], x, -6.0%[46.1 µM], 8.4%, x
> COc1cc(Nc2c3c(nc4ccccc24)CCC3)cc(OC)c1OC
  8.0%, -15.2%, x, -21.0%, 1.6%, u, x, 10.4%
> COc1cccc(CNC(=S)Nc2cc(C)cc(C)c2)c1
  -12.0%, -13.4%, x, -8.9%[46.1 µM], -0.2%, 11.5%[46.1 µM], x, 0.7%
> O=C(Nc1ccc(OC(F)F)c(Cl)c1)c1ccccn1
  x, 6.0%, x, u, -3.3%, u, x, -16.0%
> C=CCNc1nc(C2(C)CC3(CC(C)OC3=O)C(=O)O2)cs1 (stereo not given)
  9.3%, 10.1%, -0.8%, 3.3%, 13.7%, 14.1%, -2.6%, 13.0%
> C[C@H](NC(=O)c1nc[nH]c1C(=O)NCC(=O)OC(C)(C)C)c1ccccc1
  9.1%, -11.2%, x, x, 0.5%, x, x, -2.0%
> CC(OC(=O)c1cccnc1)C(=O)NCc1ccc2c(c1)OCO2 (stereo not given)
  8.4%, -15.0%, -0.5%, 16.7%, -22.0%, 1.2%, 0.6%, 15.6%
> CCCS(=O)(=O)N1CCCC(C(=O)NCCN(CC)CC)C1 (stereo not given)
  1.4%, -0.2%, 3.0%, 1.0%, 4.9%, 2.6%, -9.6%, -9.9%
> CCOc1ccc(N2C(=O)c3cccnc3C2Nc2ccc(C)cc2)cc1 (stereo not given)
  4.0%, 17.6%, -1.0%, -8.9%, 6.1%, -5.6%, -4.0%, 20.2%

Arranged by molecular weight (lowest first): some entries from above
The line under a structure holds: NS1 function inh, 2A StopGo, Cruzain Triton, LASV entry inh, SARS PLP yeast, Marburg entry inh, Cruzain noTriton, RE007 growth inh
> CC1(C)CC(CC(=O)O)C(=O)O1 (stereo not given)
  -4.0%, 14.8%, 4.4%, -9.9%, 7.4%, -5.5%, 9.7%, 6.0%
> NC(=O)CS(=O)(=O)c1nc2ccccc2n1Cc1ccccc1F
  5.8%, 5.4%, -1.7%, u, -2.9%, 0.5%&0.5%, -0.7%, 23.2%
> COCc1cc(C)nc(SCC(=O)Nc2ccc3c(c2)n(C)c(=O)n3C)c1C#N
  4.8%, -1.1%, x, 22.0%, -0.5%, 26.8%, x, -17.6%
> Cc1cc(=O)oc2cc(OCc3ccc(C(=O)OCC(=O)N(C)C4CCS(=O)(=O)C4)cc3)ccc12 (stereo not given)
  4.6%, 15.6%, x, x, 0.4%, x, x, 4.3%
> COc1ccc(Nc2sc(C(=O)Nc3cccc(Cl)c3)c(N)c2C(=O)Nc2ccccc2OC)cc1
  18.9%, x, -5.1%, x, 11.4%, 2.8%, u, x
